Prx2 Sm inh: Schistosoma mansoni Prx2 inhibition; S. mansoni Prx2 activity coupled to TGR/GSH (TGR is thioredoxin glutathione reductase), NADPH fluorescence loss, qHTS; some inactives read as strong as hits; Potency, µM; 65,000 compounds, 0.07% hits; AID 448; active means full or partial inhibition curve with a strong effect at the top dose; inconclusive means weaker partial or single-point curve; inactive means no accepted curve; further: series up to 57 µM; many of its hits are not listed in these tables
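Activity is read as the drop in NADPH fluorescence (365/450 nm), recorded every 30 sec for 8 min after H2O2 addition. Prx2 is coupled to TGR-driven NADPH oxidation through glutathione, in phosphate buffer pH 7.4.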
LT uptake inh: blocks cellular internalization of anthrax lethal toxin; 70,000 compounds, 0.67% hits; Potency, µM (top dose mostly 40 µM), without a hit: at the highest dose activity change, negative = inhibition, actives largely listed as inhibitors; Cells, anthrax lethal toxin internalization, FRET ratio (460/530); active = well fitted falling ratio curve with the 530 nm signal flat; inconclusive = other ratio curves, or a change in one channel alone; inactive = flat curves in the ratio and both channels; the % refers to the ratio; further: on the % scale 0 is the no-effect control and ±100 the full control effect; nearly all actives have a fitted effect of over 50% in size; tested in ME-180 cells; beta-lactamase reporter
Numbers without * were called inactive; ? = inconclusive; . = not tested or not shown; & = joins results of further samples; [ ] = dose if it differs, or a comment. Potency means the concentration at half of the fitted maximal effect. Not all compounds are listed; count on the stated rates, not on these rows.

Sample of the layout, three compounds:
SMILES	Prx2 Sm inh	LT uptake inh
N#CC1=C(SCc2ccccc2Cl)NC(=O)C(C(N)=O)C1 (configuration not stated)	>57	8.0%
CCn1c(N2CCN(CC(=O)c3c(C)n(C)c4ccccc34)CC2)nc2c1c(=O)[nH]c(=O)n2C	>57	-11.5%
O=C(N1CCN(c2ccccc2)CC1)C(F)(F)C(F)(F)F	>57	-15.1%

The whole of this part, repeating the preview:
SMILES	Prx2 Sm inh	LT uptake inh
N#CC1=C(SCc2ccccc2Cl)NC(=O)C(C(N)=O)C1 (configuration not stated)	>57	8.0%
CCn1c(N2CCN(CC(=O)c3c(C)n(C)c4ccccc34)CC2)nc2c1c(=O)[nH]c(=O)n2C	>57	-11.5%
O=C(N1CCN(c2ccccc2)CC1)C(F)(F)C(F)(F)F	>57	-15.1%
Cc1cc(C(=O)CSc2nn(-c3ccccc3)c(=S)s2)c(C)n1Cc1ccco1	>57	?
Cc1cc(C)c(NC(=O)CSc2nnc(-c3ccco3)n2N)c(C)c1	>57	-4.5%
O=C(c1ccco1)N1CCN(S(=O)(=O)c2ccc(S(=O)(=O)NC3CC3)cc2)CC1	>57	12.0%
CCOC(=O)N1CCN(C(=O)c2nn(-c3cc(OC)cc(OC)c3)c(=O)c3ccccc23)CC1	>57	-6.8%
Cc1cc(S(=O)(=O)N2CCN(Cc3ccc4c(c3)OCO4)CC2)cc(C)c1N1CCCC1=O	>57	-5.3%
CCCCCCCC/C=C\CCCCCCCC(=O)N(CCO)CCO	.	-11.9%
COc1ccc2[nH]c3nc(SCc4nnc(-c5ccccc5)o4)nnc3c2c1	>57	-5.4%
NC(=O)CSc1nnc(-c2ccc(S(=O)(=O)N3CCCC3)cc2)n1Cc1ccco1	>57	-7.3%
O=C(Cc1cccs1)NCc1ccncc1	>57	4.5%
COc1cccc(OC)c1OCCCOc1c(OC)cccc1OC	>57	-2.2%
CCn1c(SCC(=O)Nc2sc(C)c(C)c2C#N)nnc1C(C)C	.	-9.3%
Cc1ccccc1NC(=O)NCCCN1CCN(C2CCCCC2)CC1	>57	-10.3%
CCOC(=O)CCc1nn(C)c(=O)c2ccccc12	>57	-8.5%
CCCNS(=O)(=O)c1ccc(NC(=O)c2ccccn2)cc1	>57	-0.4%
COc1ccccc1-c1nc(C#N)c(N2CCC(Cc3ccccc3)CC2)o1	>57	0.4%
COc1ccccc1CNC(=O)C1CCC(CNc2c(N3CCOCC3)c(=O)c2=O)CC1 (configuration not stated)	>57	?
CN(C)C(=O)c1ccc(-c2nc(Nc3ccncc3)c3ccccc3n2)cc1	.	-3.4%
COc1ccc(-c2nc(-c3ccc(Br)cc3)no2)c(OC)c1	>57	0.7%
COc1ccccc1CNC(=O)c1oc2ccc(S(=O)(=O)N3CCCC3)cc2c1C	>57	-16.6%
CCCC(=O)N1CCN(c2ccc(C(=O)c3ccc(OC)c(Br)c3)cc2F)CC1	.	?
CN(C)CCCN1C(=O)C(=O)/C(=C(/O)c2ccc(OCc3ccccc3)cc2)C1c1cccnc1 (configuration not stated)	>57	-6.2%
CCOc1ccc(Nc2cc(C)nc(-n3nc(C)cc3C)n2)cc1	.	?

Entries shown so far containing two or more sulfur atoms:
SMILES	Prx2 Sm inh	LT uptake inh
Cc1cc(C(=O)CSc2nn(-c3ccccc3)c(=S)s2)c(C)n1Cc1ccco1	>57	?
O=C(c1ccco1)N1CCN(S(=O)(=O)c2ccc(S(=O)(=O)NC3CC3)cc2)CC1	>57	12.0%
NC(=O)CSc1nnc(-c2ccc(S(=O)(=O)N3CCCC3)cc2)n1Cc1ccco1	>57	-7.3%
CCn1c(SCC(=O)Nc2sc(C)c(C)c2C#N)nnc1C(C)C	.	-9.3%

Continuation.
SMILES	Prx2 Sm inh	LT uptake inh
Cc1nc(NC(=O)CSc2ccccc2N)sc1C	>57	10.9%
O=C(NCc1ccc2c(c1)OCO2)c1ccc(COc2cccc(Cl)c2)o1	>57	-23.9%
CCc1c(C)nc2ncnn2c1N1CCC(C(=O)Nc2ccccc2)CC1	>57	-5.5%
C=CCN=C(NC#N)SCc1ccccc1Cl	>57	-1.6%
Cn1c(Cn2c(=O)sc3ccccc32)nnc1SCC(N)=O	>57	-10.7%
C=CCN(c1ccc(C(N)=O)cc1)S(C)(=O)=O	>57	3.5%
C1=C(c2ccccc2)Nc2nnnn2C1	>57	5.6%
Cc1cc(-c2ccc(N)c(C)c2)ccc1N	.	-7.7%
CCCCCn1c(N2CCC(C(N)=O)CC2)nc2c1c(=O)[nH]c(=O)n2C	>57	0.4%
COC(=O)[C@@]1(Cc2ccc(F)cc2)[C@H]2c3cc(C(=O)N4CCCC4)n(CCc4ccccn4)c3C[C@H]2CN1C(=O)c1ccccc1	>57	-14.9%
COc1cc(C2C(C(=O)c3cccs3)=C(O)C(=O)N2Cc2ccco2)cc(OC)c1OC (configuration not stated)	.	-5.2%
Cc1cc(C)c(C#N)c(SCC(=O)OC2CCCCC2)n1	>57	-18.9%
Cc1ccc(C(=O)c2ccccc2C(=O)O)c(O)c1	.	8.5%
Cc1ccc(-c2noc(CCC(=O)Nc3ccccc3C)n2)cc1	>57	-2.2%
COC(=O)C1=C(C)N=C2SCCC(=O)N2C1c1cc(Br)ccc1OC (configuration not stated)	>57	3.7%
Cc1ccccc1-c1nc(CN2CCC(C(=O)NCCCN3CC(C)CC(C)C3)CC2)c(C)o1 (configuration not stated)	>57	2.51µM*
CN(C)c1nc(N(C)C)nc(N(C)C)n1	>57&>57	0.7%[3.58 µM]
Cc1onc(-c2ccccc2Cl)c1C(N)=O	>57	1.8%
COC(=O)c1ccc2ccn(CC(=O)NC(C)C)c2c1	>57	3.3%
O=C(Cn1cc(C(=O)c2ccccc2)c2ccccc21)NCc1ccco1	>57	-14.4%
CC1(C)CC(=O)C=C(Nc2ccc(OCC(F)(F)C(F)F)cc2)C1	>57	-0.9%
CCC1CCCCN1C(=O)COC(=O)c1cc2ccccc2cc1O (configuration not stated)	>57	?
CCn1c(=O)cc(OCC(=O)Nc2nc(C)cs2)c2ccccc21	>57	1.1%
COc1ccc(CNC(=O)COC(=O)c2n[nH]c3ccccc23)cc1OC	>57	-10.9%
Cc1ccc(C(=O)OCC(=O)Nc2ccccc2)cc1NC(=O)c1ccco1	>57	-0.1%

The list goes on.
SMILES	Prx2 Sm inh	LT uptake inh
Nn1c(SCC(=O)Nc2ccc(S(=O)(=O)N3CCCC3)cc2)nnc1C(F)(F)F	>57	-2.7%
CC1(C)NC(=O)N(CC(O)CN2C(=O)CCC2=O)C1=O (configuration not stated)	>57	9.0%
COc1ccccc1-c1cncnc1NCc1cccs1	>57	-0.9%
Cn1c(=O)[nH]c2cc3ccccc3cc21	>57	6.7%
O=C(c1cccc(-n2cnnn2)c1)N1CC=C(c2ccccc2)CC1	>57	-6.2%
COC(=O)c1ccccc1Nc1ccccc1	>57	-0.9%
COC(=O)[C@H](CCSC)NC(=O)C/C=C\[C@@H](C)CO	.	5.8%[8 µM]
CC(=O)N1CCC[C@@]2(CCN(Cc3ccc(C#N)cc3)C2)C1	>11.4	?
COCCCn1c(SCC(=O)NC2CCCC2)nnc1-c1ccco1	>57	-0.7%
Cc1ccc(C)c(NC(=O)CC(NCCCN2CCOCC2)C(=O)O)c1 (configuration not stated)	>57	13.0%
CCOc1ccc(NC(=O)C2CCC(C)(C(=O)O)C2(C)C)cc1 (configuration not stated)	.	-9.7%
Cn1c(=O)c(-c2cccs2)nc2cnc(Oc3ccccc3)nc21	>57	?
O=C(O)Cc1cc2c(s1)CCCCC2	>57	-7.8%
Cn1cccc1Cc1nnc(SCC(=O)Nc2cccc(F)c2)n1-c1ccc(F)cc1	>57	-10.0%
Cc1csc(SCc2c(C(=O)O)oc3ccccc23)n1	>57	2.3%
Cc1cc(Nc2ccccc2Br)n2nc(C)nc2n1	>57	3.6%
CCCCC(=O)NCc1ccc2c(c1)cc(C)n2C	>57	1.8%
Cc1ccc(S(=O)(=O)Nn2c(C)ccc2C)cc1	>57	5.1%
COc1cc(-c2noc(C3CCCN(S(=O)(=O)c4cccc(Cl)c4)C3)n2)cc(OC)c1OC (configuration not stated)	>57	?
OCC1(C2=NOC(O)(C(F)(F)F)C2)CCCCC1 (configuration not stated)	>57	-9.7%
CC(=O)N1CCN=C1SCc1ccc(Br)cc1	>57	7.2%
Cc1nnc(NC(=O)c2sc3ccccc3c2Cl)s1	>57	-6.3%
Cc1cccc(-c2nnc3sc(-c4ccccc4C)nn23)c1	>57	?
O=c1ccc2cc(S(=O)(=O)N3CCN(c4ccccc4)CC3)ccc2o1	>57	5.7%
COC(=O)Nc1c(C)n(C)n(-c2ccccc2)c1=O	>57	-5.6%

Another view of some results above.
mol | Prx2 Sm inh | LT uptake inh
CC(=O)N1CCN=C1SCc1ccc(Br)cc1 | >57 | 7.2%
Cc1nnc(NC(=O)c2sc3ccccc3c2Cl)s1 | >57 | -6.3%

(listing goes on)
SMILES	Prx2 Sm inh	LT uptake inh
COc1ccc(-c2nc(C#N)c(NCc3ccc(C)cc3)o2)cc1OC	>57	?
COCCCNC(=O)C1CCN(c2ncccn2)CC1	>57	-4.8%
Clc1ccc2nc3ccccn3c2c1	>57	?
O=C(Cn1cnc2c(nnn2-c2ccccc2)c1=O)N1CCCc2ccccc21	>57	-2.7%
CCOc1ccccc1NC(=O)c1cc(CC(C)C)oc1C	>57	?
CC(=O)NCCNc1nc(-c2ccccc2C(F)(F)F)nc2ccccc12	>57	6.1%
COC(=O)c1cccc(COC(=O)c2ccccc2NC(=O)c2ccco2)c1	>57	6.6%
O=S(=O)(Nc1ccc2nc(C(F)(F)F)[nH]c2c1)c1ccccc1	>57	-11.7%
Cc1cc(=O)[nH]c(SCC(=O)Nc2nc3c(s2)CCCC3)n1	>57	14.5%
CCOC(=O)/C(C#N)=C1/C=CN(Cc2ccccc2)C=N1	.	10.6%
O=C(Nc1cccc(Cl)c1N1CCCC1)c1cc2ccccc2o1	>57	-22.9%
O=C=NC1CCCCC1	.	-2.8%&3.3%
COC(=O)COC(=O)CC(CC(N)=O)c1ccccc1 (configuration not stated)	>57	1.2%
Cn1c(NC(=O)c2ccco2)c(-c2ccccc2Cl)c(=O)c2ccccc21	>57	?
CC[C@]1([C@H]2O[C@@H]([C@@H]3O[C@](O)(CO)[C@@H](C)C[C@H]3C)C[C@H]2C)CC[C@@H]([C@]2(C)CC[C@@]3(C[C@@H](O)[C@@H](C)[C@@H]([C@H](C)[C@H](OC)[C@H](C)C(=O)O)O3)O2)O1	>57	?
CN1CCCC[C@@H]1CCN1c2ccccc2Sc2ccc(S(C)=O)cc21 (some centres not stated)	>57&>57	-1.3%[8 µM]
CN1CCCC2(CCN(S(=O)(=O)c3ccccc3)CC2)C1	>57	?
COc1ccc(-c2cc(C(=O)NCCN3CCOCC3)c3ccccc3n2)c(OC)c1	>57	14.3%
CC1CCCCC1N1CCN(C(=O)c2cccc(F)c2)CC1 (configuration not stated)	>57	-12.5%
Nc1nc2n(n1)C(c1ccco1)CC(c1ccccc1)N2 (configuration not stated)	>57	-1.2%
CCOc1ccc2[nH]c(C)c(CN3CCN(CC)CC3)c(=O)c2c1	>57	-18.1%
CCOCCCNc1ncc2c(n1)CC(c1ccc(C)cc1)CC2=O (configuration not stated)	>57	.
CC1CN(c2c3c(nc4ncnn24)CCCC3)CC(C)O1 (configuration not stated)	>57	-3.1%
CCCc1cc(-c2[nH]ncc2-c2ccc(C(=O)OCC)o2)c(O)cc1O	>57	-23.9%
CCOC(=O)c1[nH]c(C)c(C(=O)Nc2ccc(C)c(Cl)c2)c1C	>57	?
C[C@@H](Nc1nc(-c2ccccc2)nc2c1oc1ccccc12)C(=O)O	>57	-3.0%
Cc1noc(C)c1C(=O)NCCC1=CCCCC1	>57	-3.3%
COc1ccc2[nH]c(=O)c(CN(C)C(=O)COc3ccccc3)cc2c1	>57	?

In a second layout: results already given.
Cn1c(NC(=O)c2ccco2)c(-c2ccccc2Cl)c(=O)c2ccccc21
  Prx2 Sm inh: >57; LT uptake inh: ?

COC(=O)c1cccc(COC(=O)c2ccccc2NC(=O)c2ccco2)c1
  Prx2 Sm inh: >57; LT uptake inh: 6.6%
